VDR inhibitor = blocks the human vitamin D receptor. VDR-SRC2-3 peptide fluorescence polarization, 2 h. Potency, µM, without a hit: max response, negative = inhibition, most hits filed as inhibitors. 400,000 tested, 0.93% active. AID 504847; active means well fitted inhibition curve with a large enough effect; inconclusive means small, poorly fitted or top-dose-only effect, or another doubt; inactive means no such curve, though single readings can be large or run the other way; further: series mostly up to about 120 µM
Target sequence (P11473 whole entry, looked up): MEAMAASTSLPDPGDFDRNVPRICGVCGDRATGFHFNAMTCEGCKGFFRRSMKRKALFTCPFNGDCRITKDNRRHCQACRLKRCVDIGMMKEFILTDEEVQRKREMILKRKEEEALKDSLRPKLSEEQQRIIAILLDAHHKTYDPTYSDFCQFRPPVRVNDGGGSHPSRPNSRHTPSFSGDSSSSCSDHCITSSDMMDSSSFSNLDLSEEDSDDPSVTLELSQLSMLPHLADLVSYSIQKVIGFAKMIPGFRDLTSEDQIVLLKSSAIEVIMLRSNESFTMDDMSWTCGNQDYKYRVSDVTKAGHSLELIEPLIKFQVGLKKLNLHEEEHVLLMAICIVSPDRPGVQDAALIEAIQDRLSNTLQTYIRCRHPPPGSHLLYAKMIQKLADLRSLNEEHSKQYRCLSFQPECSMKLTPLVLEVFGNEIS
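The screen uses fluorescence polarization to detect compounds that interfere with recruitment of the SRC2-3 coactivator peptide to VDR; plates are read after 2 h at room temperature.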
Starred values were filed as active, the others as inactive; ? = inconclusive; [ ] = remark or other dose. On the % scale 0 is the no-effect control and ±100 the full control effect; potency means the concentration at half of the fitted maximal effect. A portion of the library (hit frequency here may not be typical).

SMILES	VDR inhibitor
COc1ccc(-c2nc3ccccc3o2)cc1NC(=O)COc1cc(C)cc(C)c1	-11%
COc1cc(/C=N/Nc2cc(C)nc(NS(=O)(=O)c3ccc(C)cc3)n2)ccc1O	3%
CC(=O)c1cc2c(cc1N)OCO2	7%
COc1ccc(C(CNCC(O)COc2c(C)ccc(C)c2C)N(C)C)cc1 (stereo not drawn)	-11%
COc1cccc(C2C3=C(N=c4s/c(=C\c5cccc(O)c5)c(=O)n42)c2ccccc2CC3)c1OC (stereo not drawn)	5%
CCOc1ccccc1N1CC(c2nc3ccccc3n2CCCCOc2cc(C)ccc2C)CC1=O (stereo not drawn)	13%
CNC(=O)c1c[nH]c2ccc(S(=O)(=O)Nc3cccc(SC)c3)cc2c1=O	7%
Cc1nc(Nc2nc(CSc3ccc(Cl)cc3)cc(=O)[nH]2)nc2ccccc12	-7%
O=C(Nc1ncc([N+](=O)[O-])s1)c1cccc([N+](=O)[O-])c1	-4%
CC1Cc2ccccc2N1S(=O)(=O)c1ccc(Cl)nc1 (stereo not drawn)	-5%
COc1cc2[nH]c(C(=O)N3CCc4ccccc4C3)cc2c(OC)c1OC	6%
N=c1n(CCN2CCOCC2)c2ccccc2n1Cc1ccccc1Br	97%[activator]
O=C1c2ccccc2C(=O)N1CCCSc1nc2ccccc2o1	1%
CCOC(=O)c1ccc(OCC2c3cc(OC)c(OC)cc3CCN2C(=O)Cc2ccc(OC)c(OC)c2)cc1 (stereo not drawn)	3%
CN(Cc1ccc(C(F)(F)F)cc1)C(=O)C1CC(=O)N(Cc2ccco2)C1 (stereo not drawn)	0%
COc1cc(C(=O)NCC(=O)N/N=C/c2ccc(OC(=O)c3ccco3)cc2)cc(OC)c1OC	3%
CC(C)(C)c1csc(NC(=O)c2c(F)c(F)c(F)c(F)c2F)n1	1%
CCOC(=O)C1C2C=CC3(CN(CCc4ccccc4)C(=O)C13)O2 (stereo not drawn)	6%
Cc1ccc2nc(-c3cccc(NC(=O)c4ccco4)c3)[nH]c2c1	-5%
COc1ccc(N2CCN(C(=O)c3oc4ccccc4c3C)CC2)cc1	2%
COCCCNC(=O)CN(c1cc(OC)ccc1OC)S(=O)(=O)c1ccccc1	1%
CCN(CC)C(=O)/C(=C\c1ccc2c(c1)OCO2)NC(=O)c1ccc(Br)cc1	-10%
COCc1cc(C)nc(N)c1C#N	-2%
Cc1cc(C(=O)OCC(=O)NC2CCCCC2)c(C)o1	1%

Some of the entries so far, as comma-separated lines.
compound,VDR inhibitor
CNC(=O)c1c[nH]c2ccc(S(=O)(=O)Nc3cccc(SC)c3)cc2c1=O,7%
Cc1nc(Nc2nc(CSc3ccc(Cl)cc3)cc(=O)[nH]2)nc2ccccc12,-7%
O=C(Nc1ncc([N+](=O)[O-])s1)c1cccc([N+](=O)[O-])c1,-4%
CC1Cc2ccccc2N1S(=O)(=O)c1ccc(Cl)nc1 (stereo not drawn),-5%
COc1cc2[nH]c(C(=O)N3CCc4ccccc4C3)cc2c(OC)c1OC,6%

Continued:
SMILES	VDR inhibitor
Cc1cccc(OCCCN2CCCCCC2)c1	0%
CCCCC(=O)NC1(C(F)(F)F)NC(=O)N(Cc2ccccc2)C1=O (stereo not drawn)	-10%
COc1ccc(/C=C/C(=O)OCC(=O)NCc2ccccc2Cl)cc1OC	1%
CS(=O)(=O)c1cnc(-c2ccccc2)nc1Oc1ccc(F)cc1	2%
COc1cccc(/C=N/NC(=O)c2ccccc2N(Cc2ccccc2)S(=O)(=O)c2ccccc2)c1OC	-6%
O=C(/C=C/c1ccccc1)NCC(=O)N/N=C/c1cccs1	-2%
COc1cc(C2C(C(=O)c3ccco3)=C(O)C(=O)N2CCc2ccccc2)ccc1O (stereo not drawn)	-11%
COC(=O)c1cc(C#N)c(N2CCN(C)CC2)nc1C	1%
CC1CN(C(=O)N2CCC(C(=O)NCc3cccs3)CC2)c2ccccc2O1 (stereo not drawn)	18%
COc1ccc(CCNC(=O)C(=O)NCC2OCCN2S(=O)(=O)c2ccc(OC)c(OC)c2)cc1 (stereo not drawn)	2%
O=C(Cc1ccccc1)NN1C(=O)C2C(C1=O)C1C=CC2C12CC2 (stereo not drawn)	12%
O=C(NCC1CCCO1)c1cc(-c2ccco2)nc2ccccc12 (stereo not drawn)	-8%
COc1cccc2c(=O)n(CC(=O)NC3CCCC3)ccc12	-16%
CC(=O)c1ccc(OCC(=O)Nc2cccc(C(=O)Nc3c(C)n(C)n(-c4ccccc4)c3=O)c2)cc1	12%
O=C(Nc1nc2c(c(=O)[nH]1)CCCC2)C1CC1	3%
COc1ccc(Oc2ncc(CN3CCN(c4ccccc4)CC3)s2)cc1	6%
COCCCNC(=O)CC1C[C@H](C(=O)N2CCCCC2)[C@@]2(CCc3ccccc3)c3[nH]c4ccc(OC)cc4c3CCN2C1=O (stereo partly drawn)	-27%
CC1=C(C(=O)Nc2ccccc2C)C(c2ccncc2)n2nc(SCc3ccccc3Cl)nc2N1 (stereo not drawn)	1%
CCC(N1CCOC1=O)S(=O)(=O)c1ccc(C)cc1 (stereo not drawn)	-4%
COc1ccc(OCC(=O)N2CCN(C(=O)c3ccc(OC)cc3)CC2)cc1	-1%
O=C(CCc1ccccc1Cl)Nc1cccc(S(=O)(=O)N2CCCC2)c1	-15%
CCn1c(C)nc2cc(C(=O)NNS(=O)(=O)c3c(F)cc(F)c(Cl)c3F)ccc21	-10%
Cc1ccc(S(=O)(=O)N2CCC(C(=O)OCC(=O)NC3(C#N)CCCCC3)CC2)cc1C	-5%
CCC(C)CCN1C(N(C)C)=NC[C@@H]1CC(C)C (stereo partly drawn)	?
CCCCN(CC)CCCNC(=O)CCN1N=C(c2ccc(OC)cc2)CCC1=O	0%
COC(=O)CC1C(=O)NCCN1C(=O)CSc1nnnn1-c1ccc(Cl)cc1 (stereo not drawn)	-13%
COc1ccc(OC)c(-n2c(=O)[nH]c3cc(C(=O)NCCc4ccc(OC)c(OC)c4)ccc3c2=O)c1	-3%
CCOc1ccc(C(=O)NCC(=O)N2CCC3CCCCC3C2)cc1OCC (stereo not drawn)	-9%
COc1ccc(N2C(=O)CSC23C(=O)N(CC(=O)Nc2ccccc2F)c2ccccc23)cc1 (stereo not drawn)	4%
CC(NC(=O)Cn1cc(C(F)(F)F)cc(Cl)c1=O)c1ccccc1 (stereo not drawn)	7%
COc1ccc2[nH]cc(CCNc3cc(-c4ccccc4CN(C)C)ncn3)c2c1	2%
CCC(=O)N1CCN(c2ccccc2NC(=S)NC(=O)c2cccc([N+](=O)[O-])c2)CC1	-3%
O=C(COC(=O)[C@@H]1CCCN1C(=O)c1cccs1)Nc1cccc(Cl)c1	8%
Nc1c(-c2ccc(F)cc2)cnn1C1CCS(=O)(=O)C1 (stereo not drawn)	36%[activator]
CN1CCN(CC(=O)Nc2cccc(S(=O)(=O)N(C)c3ccccc3)c2)CC1	-18%
CCC1(C)Cc2c(sc3c2c(=O)n(C)c2nnc(SCc4ccc5c(c4)OCO5)n32)CO1 (stereo not drawn)	-2%
COc1cccc(Cn2nnc3c(=O)[nH]c(C4CCN(C(=O)c5ccccc5Cl)CC4)nc32)c1	8%
COc1cc(-c2nc(C)c(C(C)=O)n2O)ccc1OCC(=O)Nc1ccc(Cl)cc1	-5%
O=C(COc1ccc(F)cc1)N(Cc1ccco1)C1CCS(=O)(=O)C1 (stereo not drawn)	-4%
O=C(CC1C(=O)NCCN1Cc1c(F)cccc1Cl)NC1CCCCCC1 (stereo not drawn)	-3%
O=C(CCNC(=O)c1ccc([N+](=O)[O-])cc1)NCCC1=CCCCC1	5%
CC1(C)OC(=O)N(CC(=O)Nc2ccccc2)C1(C)O (stereo not drawn)	-13%
O=C(O)CCCC(=O)Nc1ccc(Oc2cccc(C(F)(F)F)c2)nc1	-15%
CCNc1nc(C)cc(COC)c1C#N	-6%
CCc1nnc(NC(=O)CN2C(=O)N(C)C3(CCCCC3)C2=O)s1	19%
Nc1nnc(SCCCC(=O)c2ccc(F)cc2)s1	2%
Cc1cc(C)cc(N=C2NC(=O)CS2)c1	9%
CCC(=Cc1ccccc1O)c1ccncc1	-16%
CCOC(=O)c1sc(NC(=O)CSc2nnc(Cc3ccccc3)o2)c(C#N)c1C	13µM*
CS(=O)(=O)N(CC(=O)N1CCN(c2ccccc2)CC1)Cc1ccc(Cl)cc1	-10%
CCOC(=O)C1(Cc2ccccc2Cl)CCN(C(=O)CN2CCOC2=O)CC1	-10%
Cc1ccc(CN(Cc2ccco2)c2cnc(S(C)(=O)=O)nc2C(=O)Nc2ccccc2Br)o1	-8%
CC1CN(S(=O)(=O)c2ccc(C(=O)N(C)C3CCCCC3)cc2)CC(C)O1 (stereo not drawn)	-6%
Cc1ccc(C(=O)N/C(=C\c2ccco2)C(=O)NCC2CCCO2)cc1C (stereo not drawn)	-8%
CC(C)NC(=O)COc1ccc2c(c1)C(=O)CC(C)(C)O2	-28%
COc1ccc(NC(=O)C2CCCN(S(=O)(=O)c3cccnc3)C2)c(OC)c1 (stereo not drawn)	-9%
CCC(c1nnnn1C(C)(C)CC)N(CCCN1CCOCC1)Cc1cc2cccc(C)c2[nH]c1=O (stereo not drawn)	4%
CCCCn1c(N)c(N(CCC(C)C)C(=O)c2ccc(COc3ccccc3)o2)c(=O)[nH]c1=O	-5%
Cc1cc(C)[n+](-c2ccc(C(C)C)cc2)c2[nH]c(=O)[nH]c(=O)c12	-14%
CN1CCN(c2ncc3nc(-c4cc(F)cc(F)c4)c(=O)n(CCC#N)c3n2)CC1	22µM*

Some of the entries above, reformatted.
CCCCn1c(N)c(N(CCC(C)C)C(=O)c2ccc(COc3ccccc3)o2)c(=O)[nH]c1=O
  VDR inhibitor = -5%

Cc1cc(C)[n+](-c2ccc(C(C)C)cc2)c2[nH]c(=O)[nH]c(=O)c12
  VDR inhibitor = -14%

CN1CCN(c2ncc3nc(-c4cc(F)cc(F)c4)c(=O)n(CCC#N)c3n2)CC1
  VDR inhibitor = 22µM*

(cont.)
SMILES	VDR inhibitor
O=c1c2ccccc2nc(/C=C/c2cccc([N+](=O)[O-])c2)n1CCCO	1%
CC1Oc2ccccc2N(CC(=O)NC2CCCCC2)C1=O (stereo not drawn)	4%
CN1C[C@@H]2[C@@H]3C(=O)N(C)C(=O)[C@@H]3[C@](C)(C1=O)N2C(=O)c1ccccc1	-4%
CCOc1ccc(OCC(=O)NCCS(=O)(=O)N2CCN(c3ccccc3F)CC2)cc1	10%
COc1ccc(-c2cn3nc(SCC(=O)Nc4cc(C)cc(C)c4)ccc3n2)cc1	-3%
COc1cc(C2c3cc4c(cc3OC(Nc3ccc(C(=O)O)cc3)C2C)OCO4)cc(OC)c1OC (stereo not drawn)	3%
COc1ccc(-n2nnnc2SCC(=O)Nc2ccc(OC)cc2OC)cc1	12%
CCOC(=O)Cc1cc(=O)n2[nH]c(-c3ccccc3)c(-c3ccccc3)c2n1	-1%
OC(CN1CCN(c2cccc(C(F)(F)F)c2)CC1)c1c[nH]c2ccccc12 (stereo not drawn)	1%
CCN1C(=O)CC(N2CCC(Nc3ccc(F)cc3)CC2)C1=O (stereo not drawn)	-4%
Cc1ccc2nc(-c3ccc(SCC(=O)Nc4nc(C)cs4)nc3)[nH]c2c1	-9%
O=c1c(-c2nnc(SCc3ccc(Cl)c(Cl)c3)o2)cccn1Cc1ccccc1	-1%
COC(=O)Oc1ccc(/C=N/NC(=O)CN(c2ccccc2Cl)S(C)(=O)=O)cc1OC	7%
Cn1c2ccsc2c2ncn(Cc3ccc(F)cc3)c(=O)c21	10%
Cc1ccc2cc(CN(Cc3ccco3)C(=O)C3CCCCC3)c(=O)[nH]c2c1C	14%
CCc1ccc(O)c(CNCCNCc2cc(CC)ccc2O)c1	-11%
Cc1c(CCO)sc[n+]1CC(=O)OCCC12CC3CC(CC(C3)C1)C2	-1%
Cc1occc1C(=O)NCc1cccc(CNC(=O)c2ccoc2C)c1	-6%
Cc1cc(C)c2c(=N)c3ccccc3n(CCCCCCCCn3c4ccccc4c(=N)c4c(C)cc(C)nc43)c2n1	25%
COC(=O)c1ccc(CNC(=O)C(C)N=C2NS(=O)(=O)c3ccccc32)cc1 (stereo not drawn)	-5%
O=C(NCCc1ccc(Cl)cc1)C(=O)NCC(c1ccc2c(c1)OCO2)N1CCOCC1 (stereo not drawn)	-4%
COc1ccc(C(=O)N(CCCO)Cc2cc3c(C)ccc(C)c3[nH]c2=O)cc1OC	-1%
Cc1nn(S(=O)(=O)c2ccc(F)cc2)c(C)c1S(=O)(=O)N1CCCCCC1	-2%
COc1ccc(OC)c(CCNC(=O)C2CCN(c3nnc(-n4cccc4)s3)CC2)c1	-11%

Some values from the results shown.
In VDR inhibitor, COc1ccc(C(=O)N(CCCO)Cc2cc3c(C)ccc(C)c3[nH]c2=O)cc1OC is listed with -1%
In VDR inhibitor, Cc1ccc2cc(CN(Cc3ccco3)C(=O)C3CCCCC3)c(=O)[nH]c2c1C is listed with 14%
In VDR inhibitor, Cc1cc(C)c2c(=N)c3ccccc3n(CCCCCCCCn3c4ccccc4c(=N)c4c(C)cc(C)nc43)c2n1 is listed with 25%
In VDR inhibitor, COC(=O)c1ccc(CNC(=O)C(C)N=C2NS(=O)(=O)c3ccccc32)cc1 (stereo not drawn) is listed with -5%
In VDR inhibitor, Cc1c(CCO)sc[n+]1CC(=O)OCCC12CC3CC(CC(C3)C1)C2 is listed with -1%

Continuation:
SMILES	VDR inhibitor
Cc1nn(C(=O)c2cccc(F)c2)c(C)c1S(=O)(=O)N1CCOCC1	8%
Nc1ncnc2nc(Sc3ccc(Cl)cc3)[nH]c12	-3%
Cc1ccc(NC(=O)CN2C(=O)C(c3ccc(C)cc3)=NC23CCCCCC3)cc1	-7%
Cn1c(C(=O)OCC(=O)NCCc2ccccc2)cc2sccc21	-5%
CSc1ccc(CN2CCN(S(=O)(=O)Cc3ccccc3)CC2)cc1	-11%
CC(=O)Nc1ccc(N(C(=O)c2ccco2)C(C(=O)NC2CCCC2)c2ccncc2)cc1 (stereo not drawn)	2%
CCCCCNC(=O)c1c[nH]c2ccc(S(=O)(=O)N3CCC(C)CC3)cc2c1=O	8%

From PubChem
